HPGD block – inhibitors of human 15-hydroxyprostaglandin dehydrogenase (HPGD). P15428. purified HPGD, NADH fluorescence kinetic, PGE2 substrate. Potency, µM, for inactives: at the highest dose activity change, negative = inhibition, hits mostly inhibitors. actives 4.3% (n = 150,000). AID 894; active = well fitted inhibition curve with a large enough effect (not every such curve was filed as active); inconclusive = small, poorly fitted or top-dose-only effect, or another doubt; inactive = no such curve, though single readings can be large or run the other way;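 note: top concentration of the series not given in the record; plate controls included wells without enzyme; inactives centre near -10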
Target sequence (P15428 whole entry, looked up): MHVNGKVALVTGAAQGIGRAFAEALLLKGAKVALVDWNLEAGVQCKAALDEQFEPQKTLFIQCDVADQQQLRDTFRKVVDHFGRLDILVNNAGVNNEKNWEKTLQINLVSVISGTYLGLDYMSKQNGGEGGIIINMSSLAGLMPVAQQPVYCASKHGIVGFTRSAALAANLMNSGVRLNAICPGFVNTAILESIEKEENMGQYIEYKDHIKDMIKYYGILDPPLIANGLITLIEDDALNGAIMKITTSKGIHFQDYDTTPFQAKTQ
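20 nM HPGD preincubated 15 min at room temperature with compound in 50 mM Tris-HCl pH 8, 0.01% Tween 20. Started with 1 mM NAD+ and 30 uM prostaglandin E2; NADH fluorescence (360/450 nm) read 5 times over 30-s intervals, last minus first.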
* = called active by the depositor; ? = inconclusive; & = joins results of further samples. % is set by controls: 0 for no effect and ±100 for the full control effect; potency is the fitted concentration of half-maximal effect. These rows are one share of the data; the hit share may differ from the screen's.

SMILES | HPGD block
CCCCNc1nc(C)nc2c1nc(-c1ccccc1)n2C(C)CCCN(CC)CC (configuration not stated) | ?
O=C1CCCN1CCC1CCN(C2CC(=O)N(c3ccc(F)cc3)C2=O)CC1 (configuration not stated) | -6.2%
CS(=O)(=O)c1cnc2c(-c3ccc(F)cc3)cnn2c1N | ?
Cc1ccc(S(=O)(=O)N(C)C)cc1NC(=O)COC(=O)/C(=C/c1ccc(F)cc1)c1cccs1 | -9.1%
CCCCSc1nc(C)c(CC(=O)OC)c(=O)[nH]1 | -12.0%
Clc1ccc(-c2cn3nc4c(nc3n2)CCCC4)cc1 | ?
CS(=O)(=O)N(CCc1ccccc1)CC(=O)N1CCN(c2ccc(F)cc2)CC1 | -5.0%
CCCCC(=O)Nc1ccc(C(=O)Nc2ccc(S(=O)(=O)Nc3ccc(C)cc3)cc2)cc1 | -2.4%
COc1cccc(-c2nnc(NC(=O)c3ccc(S(=O)(=O)N4CC(C)OC(C)C4)cc3)o2)c1 (configuration not stated) | -22.9%
CN(Cc1ccco1)C(=O)C1CCC(=O)N1Cc1ccc(F)cc1 (configuration not stated) | -0.3%
CC(C)Oc1ccc(-c2cc(C(=O)NCCN3CCOCC3)c3ccccc3n2)cc1 | ?
CCOc1cc(C(=O)Nc2cc(C)on2)cc(OCC)c1OCC | -8.7%
Cn1cnnc1SC1CCCCC1NS(=O)(=O)c1ccccc1 (configuration not stated) | -3.3%
CCCc1cc2c(=O)c(-c3ccc4c(c3)OCCO4)coc2cc1OS(C)(=O)=O | -19.0%
COC(=O)c1nc2ccccc2s1 | 0.3%
CC(=C/c1ccc(C(C)C)cc1)/C=N/NC(=O)CSc1ccccn1 | -22.7%
COc1cccc(-c2noc(CCC(=O)Nc3cccnc3)n2)c1 | -4.6%
Cn1cc(/C=C/c2nc3ccccc3c(=O)n2-c2cccc([N+](=O)[O-])c2)c2ccccc21 | -11.6%
COc1ccc(N2CCN(C(=O)c3ccc(-n4nc(C)cc4C)cc3)CC2)cc1 | -8.7%
COc1cc(/C=N/O)ccc1OCc1ccc([N+](=O)[O-])cc1 | -3.3%

Among those listed so far, six have a halogen:
SMILES | HPGD block
O=C1CCCN1CCC1CCN(C2CC(=O)N(c3ccc(F)cc3)C2=O)CC1 (configuration not stated) | -6.2%
CS(=O)(=O)c1cnc2c(-c3ccc(F)cc3)cnn2c1N | ?
Cc1ccc(S(=O)(=O)N(C)C)cc1NC(=O)COC(=O)/C(=C/c1ccc(F)cc1)c1cccs1 | -9.1%
Clc1ccc(-c2cn3nc4c(nc3n2)CCCC4)cc1 | ?
CS(=O)(=O)N(CCc1ccccc1)CC(=O)N1CCN(c2ccc(F)cc2)CC1 | -5.0%
CN(Cc1ccco1)C(=O)C1CCC(=O)N1Cc1ccc(F)cc1 (configuration not stated) | -0.3%

Next part.
SMILES | HPGD block
COC(=O)NC(=S)Nc1ccc(Oc2ccc(Cl)cc2)c(Cl)c1 | -10.7%
CCOC(=O)/C=C1\NC(=O)C(C)S1 (configuration not stated) | -17.1%
COc1cc(C)c(Cl)c(C)c1S(=O)(=O)NCc1ccc2c(c1)OCO2 | -9.5%
Cc1cc(C)n(CCOc2ccc(Cl)cc2Cl)n1 | 31.6µM*
COc1ccc(OC)c(S(=O)(=O)N2C(C)CCCC2C)c1 (configuration not stated) | -9.6%
Cc1ccccc1NC(=S)NC(=O)c1cncc(Br)c1 | -16.8%
CCn1ncc(C(=O)Nc2cccc(Cl)c2)c1C | -3.9%
COc1cccc(/C=N/NC(=O)CCn2c3ccccc3c3ccccc32)c1 | -22.5%
CCc1cccc(NC(=O)CCc2nc(-c3cccs3)no2)c1 | -8.0%
CCOC(=O)N1CCN(C(=O)C2c3cc(OC)c(OC)cc3C(=O)N3CCc4ccccc4C23)CC1 (configuration not stated) | -3.4%
Cc1ccc(S(=O)(=O)C(C#N)c2nc3ccccc3nc2N2CC(C)OC(C)C2)cc1C (configuration not stated) | 2.4%
COC(=O)c1ccccc1NC(=O)CN1CCC(n2nnc3cc(C)ccc32)CC1 | -16.8%
O=C(O)c1cnn2c(C(F)F)cc(C(F)F)nc12 | 2.3%
c1ccc(-c2noc(C3CCCCC3)n2)nc1 | -6.2%
COc1cc(C2=NOC(C(=O)N3CCN(c4ccc(F)cc4)CC3)C2)cc(OC)c1OC (configuration not stated) | -13.3%
COc1cccc(C2CC(c3ccccc3Cl)n3ncnc3N2)c1 (configuration not stated) | -12.1%
CN1CCN(c2nc3nonc3nc2N2CCN(C)CC2)CC1 | -14.2%
CCN(CC(=O)Nc1ccccc1OC)C(=O)C1CC2C=CC1C2 (configuration not stated) | -4.6%
Cc1nnsc1SCCNC(=O)c1c(F)cccc1F | -9.5%
O=C1OCCC1Sc1nc2ccccc2n1-c1ccccc1 (configuration not stated) | -6.9%
O=C(CN1CCN(Cc2ccc3c(c2)OCO3)CC1)N1CCc2[nH]c3ccc(F)cc3c2C1 | 3.0%
COc1ccc(C/C(C)=N/NC(=O)c2cc(C)oc2C)cc1 | -9.4%
CCOC(=O)/C=C1\SCC(=O)N1CC(=O)NC(C)c1ccccc1 (configuration not stated) | -0.6%
CC(C)(C)OC(=O)N1CCCC1C(=O)N1CCc2ccccc21 (configuration not stated) | -5.2%
Cc1ccc(N2C(=O)NC(NC(=O)C(C)(C)C)(C(F)(F)F)C2=O)cc1C (configuration not stated) | 1.9%
Fc1ccc(-c2[nH]ncc2-c2nnnn2-c2ccccc2)c(F)c1 | -8.4%
COc1ccc(-c2nn(-c3ccccc3)cc2CO)cc1OC | ?
O=C(COC(=O)c1cccnc1)Nc1ccccc1 | -0.7%
Cc1ccc(C2N(c3cccc(Cl)c3)C(=O)C3CCCN32)o1 (configuration not stated) | -5.6%
Cc1ccc(Nc2nc(N3CCOCC3)nc(N3CCOCC3)n2)cc1 | -11.2%
Cc1ncc([N+](=O)[O-])n1CC(=O)NC(C)(C)C | -9.3%
N=C1[C@@H](O)[C@]2(I)c3ccccc3N3C(=N)[C@H](O)[C@@H]4c5ccccc5N1[C@@H]4[C@@H]32 | 3.98µM*
O=C(Nc1nc(N2C(=O)c3ccccc3C2=O)n(-c2ccccc2)n1)c1ccc(Cl)cc1 | -4.6%
O=C(N/N=C/c1ccco1)c1cc(-c2cccs2)[nH]n1 | -5.2%
CCCCCn1nc(C)c2c(C)cc(=O)[nH]c21 | -6.4%
CC(C)Cc1cc(C(=O)N2CCN(c3ccc(F)cc3)CC2)no1 | 3.3%
CN1CCc2c(sc(NC(=O)c3ccc(S(=O)(=O)N4CCOCC4)cc3)c2C(N)=O)C1 | -18.2%
O=[N+]([O-])c1cccc(-c2nnn(C34CC5CC(CC(C5)C3)C4)n2)c1 | -11.0%
CCc1cccc(NC(=O)C2CCCC2)c1 | -8.6%
CCOC(=O)Cn1cnc2c(nnn2-c2ccc(OC)cc2)c1=O | -24.6%

Structures listed so far containing a thiophene ring, fused or not:
SMILES | HPGD block
Cc1ccc(S(=O)(=O)N(C)C)cc1NC(=O)COC(=O)/C(=C/c1ccc(F)cc1)c1cccs1 | -9.1%
CCc1cccc(NC(=O)CCc2nc(-c3cccs3)no2)c1 | -8.0%
O=C(N/N=C/c1ccco1)c1cc(-c2cccs2)[nH]n1 | -5.2%
CN1CCc2c(sc(NC(=O)c3ccc(S(=O)(=O)N4CCOCC4)cc3)c2C(N)=O)C1 | -18.2%

Taken from above.
Entry for CCc1cccc(NC(=O)CCc2nc(-c3cccs3)no2)c1 in HPGD block: -8.0%
Entry for CCCCCn1nc(C)c2c(C)cc(=O)[nH]c21 in HPGD block: -6.4%

Remaining list, next part
SMILES | HPGD block
O=C(O)CSc1nnc(CNc2ccccc2Cl)n1-c1ccccc1 | ?
COc1ccccc1NC(=O)c1ccc(NC(=O)CSc2nncn2C)cc1 | -4.2%
COc1ccc(OC)c(CC(NC(C)=O)C(=O)NC2CCN(c3c(Cc4ccccc4)c(C)nc4ncnn34)CC2)c1 (configuration not stated) | -22.9%
CN(C)c1ccc(/C=C2\CCCCC2=O)cc1 | ?
Cc1c(N=Cc2nc3ccccc3n2C)c(=O)n(-c2ccccc2)n1C | -6.0%
COc1ccc(CNC(=O)C2C3C=CC4(CN(Cc5cccnc5)C(=O)C24)O3)cc1 (configuration not stated) | -4.8%
CCN(CC)c1ccc(/C=N/Nc2nc(C)cc(C)n2)c(O)c1 | 20µM*
CCCNC(=O)[C@H](Cc1c[nH]c2ccccc12)NC(=O)c1ccccc1Cl | -9.6%
CCOC(=O)CN1C(=O)C(=O)c2cccc(C)c21 | -14.7%
COc1ccc([C@@H]2CC(=O)c3c(O)cc(O)cc3O2)cc1O | -7.6%&-22.0%
Cc1ccc(-c2nnc(SCC(=O)N3CCN(c4ccccc4)CC3)o2)cc1 | -3.6%
COc1ccc(C(=O)c2c(O)cc(-c3ccc(OC)cc3)oc2=O)cc1 | -7.5%
COc1cccc(C2CC(C(F)(F)F)n3ncc(C(=O)NCC4CCCO4)c3N2)c1 (configuration not stated) | 14.1µM*
Cc1c(N=C2NC(=O)C(CC(=O)Nc3ccc(Cl)cc3)S2)c(=O)n(-c2ccccc2)n1C (configuration not stated) | -23.0%
O=C1c2ccccc2NC(c2cn[nH]c2-c2ccc(Cl)cc2)N1O (configuration not stated) | -6.0%
Cc1ccc(/C=C(\C#N)C(=O)Nc2cccc3ncccc23)o1 | 39.8µM*
O=C(COc1ccc2ccccc2c1)NN1C(=O)c2ccccc2C1=O | -4.4%
CCCCC(=O)Nc1ccc(NC(=S)NC(=O)CCCCl)cc1OC | -18.7%
COc1ccccc1-n1c(SCC(=O)N2CCCCC2)nc2cccnc21 | ?
Cn1c(N)c(C(=O)c2ccccc2)c(=O)n(C)c1=O | -3.6%

Entries above that contain a COOH group:
SMILES | HPGD block
O=C(O)c1cnn2c(C(F)F)cc(C(F)F)nc12 | 2.3%
O=C(O)CSc1nnc(CNc2ccccc2Cl)n1-c1ccccc1 | ?

Later entries
SMILES | HPGD block
CCOC(=O)c1sc(NC(=O)Nc2ccccc2Cl)cc1C | -30.0%
O=C(CC(Nc1ccccc1)C(=O)O)c1ccccc1 (configuration not stated) | -12.2%
Cc1ccc2oc(=O)cc(CN3CCC(C)CC3)c2c1 | -8.7%
O=C(C1CCN(Cc2cc(Cl)ccc2O)CC1)N1CCN(Cc2ccccc2)CC1 | 1.6%
Cc1ccc(NC(=S)NCCN2CCOCC2)cc1 | -1.4%
Cc1ccc(NC(=O)CCc2c(C)nc3ncnn3c2C)cc1 | -9.0%
C[N+]1(C2CCC3CCC2C3O)CCCC1 (configuration not stated) | -4.6%
O=S(=O)(Cc1cc(Oc2ccccc2)nc(-c2ccccc2)n1)c1ccccc1 | -15.0%
CCCCNC(=O)C1C2C=CC3(CN(Cc4ccccc4Cl)C(=O)C13)O2 (configuration not stated) | 3.9%
CCCn1c(=NC(=O)c2ccco2)c(C(=O)OCC)cc2c(=O)n3ccccc3nc21 | ?
CCc1cc2c(=O)[nH]cnc2s1 | -12.5%
Cc1cc(C)n(CC(=O)N/N=C/c2ccco2)n1 | -28.4%
C=CCNC(=O)C12CCC(C)(C(=O)C1Br)C2(C)C (configuration not stated) | -10.3%
CC1(C)S[C@@H]2[C@H](NC(=O)Cc3ccccc3)C(=O)N2[C@H]1C(=O)O | 0.5%&-11.7%&-7.8%
O=c1cc(-c2ccccc2Cl)c2c([nH]1)CCC2 | -29.2%
CCOC(=O)c1c(/N=C/N(C)C)sc(/C=N/Nc2ccccc2)c1-c1ccccc1 | -6.4%
CNC(=O)N(O)C1N(c2ccccc2)C(=S)SC1(C)C (configuration not stated) | -5.1%
COc1cccc(-c2csc(NC(=O)C3CC3)n2)c1 | -14.5%
CSc1nncn1/N=C/c1ccccc1F | -3.2%
Cn1c(=O)oc2cc(S(=O)(=O)N3CCCC(C(=O)Nc4nccs4)C3)ccc21 (configuration not stated) | -19.8%
CC1CCN(C(=O)c2ccc(S(=O)(=O)Cc3cc(F)ccc3F)c([N+](=O)[O-])c2)CC1 | -21.2%
Cc1cc(C)cc(NC(=S)/N=C(\N)Nc2nc(C)c3ccccc3n2)c1 | -13.0%
COC(=O)c1ccccc1NC(=O)c1ccc(Cn2cc(Cl)cn2)o1 | -12.0%
CCOC(=O)N1CCC2(CC1)CC(=O)c1cc(O)ccc1O2 | 0.0%
COc1ccc(C(C(=O)NC(C)(C)C)N(CC2CCCO2)C(=O)CCC(=O)Nc2cc(C)on2)cc1 (configuration not stated) | -12.9%
O=C(c1cccc(F)c1)N1CCC2(CC1)CCN(C(c1ccccc1)c1ccccc1)CC2 | -8.9%
COc1ccccc1NS(=O)(=O)c1cc(NC(=S)NCCN2CCOCC2)ccc1N1CCOCC1 | 17.8µM*
CCCN1C(=O)C(NC(=O)c2ccncc2)(C(F)(F)F)C2=C1CC(C)(C)CC2=O (configuration not stated) | -14.0%
Cc1ccc2nc(NC(=O)c3cccc(-c4cc5ccccc5oc4=O)c3)sc2c1 | -23.1%
O=C(OCC(=O)N1CCN(C(=O)c2ccco2)CC1)c1ccccc1O | -5.5%
Nn1c(Cc2cccc3ccccc23)nnc1SCCOc1ccc(Br)cc1 | 14.1µM*
O=C(Nc1ccc(F)cc1)c1cccnc1NCCc1ccccc1 | -12.5%
O=C(Nc1ccccc1-c1ccccc1)c1ccc(Br)o1 | -16.2%
C[C@@H]1NC(=O)c2cc([N+](=O)[O-])cc(I)c2OCC[C@@H](C(N)=O)NC(=O)[C@H](CCCCN)NC1=O | -9.1%
COc1c(O)ccc2c1CN1CCc3cc4c(cc3[C@@H]1C2)OCO4 | -12.3%
CCOC(=O)c1ccc(NC(=O)CSc2nc3c(c(=O)n2-c2ccccc2OC)SCC3)cc1 | -11.7%
COc1cccc(C2C(C(=O)Nc3ccc(C)cc3C)=C(C)Nc3ncnn32)c1OC (configuration not stated) | -6.1%
Cn1nnnc1SCC(=O)NC1CCCCC1 | -17.6%
CN(C)CCCSc1nc(-c2ccccc2)nc2c1CCC2 | -8.7%
Cc1ccc(OCc2ccc(C(=O)Nc3nccs3)o2)cc1 | -8.4%
COc1ccc2c(c1OC)OCC(c1ccc(OC)c(OC)c1OC)C2 (configuration not stated) | -3.9%
Clc1cccc(Oc2ncccn2)c1 | -11.3%
